KSHV LANA nucl: LANA-nucleosome interaction inhibition | 51,000 tested, 0.3% active | FITC-LANA1-23 / chicken nucleosome fluorescence polarization; hits give low values | z-score (test concentration not listed);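 active = both repeat wells score below -2 in polarization z-score versus plate sample wells, excluding overly bright wells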;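 note: 100 nL library stock added to about 30 µL; numbers are from one replicate; some results filed as inactive read as strong as hits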
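Assay system: FITC-LANA peptide and chicken nucleosomes; input: 240 nM purified chicken nucleosomes (480 nM peptide binding sites), final; also added: 50 nM FITC-LANA1-23 probe; medium: TEN-BT buffer, pH 7.5; doses: pin-transferred compound, 100 nL; times: 10–45 min, room temperature; technique: fluorescence polarization; replication: duplicates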
BasE inh: inhibitors of Acinetobacter baumannii siderophore enzyme BasE; inhibition, % (concentration not given with the values); AID 485350; 84,000 tested, 0.1% active; purified BasE, fluorescence polarization binding displacement;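 active = both replicates above 25% with normal brightness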;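 note: 0% = negative plate control signal and 100% = positive plate control signal; stock transfer was 100 nL into about 30 µL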
Numbers without * were called inactive; . = not tested or not shown. An excerpt. The share of hits here may be higher or lower than overall.

| canonical_smiles | KSHV LANA nucl | BasE inh |
| --- | --- | --- |
| CC(C)CC1NC(=O)N(C)C1=O (configuration not stated) | . | 2.2 |
| CCCn1c2ccccc2c2cnn(CC(=O)N(C)Cc3ccccc3)c(=O)c21 | 1.1 | -3.7 |
| Cc1sc2nc(CSC(C)C(=O)OCn3nnc4ccccc4c3=O)[nH]c(=O)c2c1C (configuration not stated) | . | 2.7 |
| Nc1ccnn1Cc1ccccn1 | . | 1.0 |
| Cc1csc(SCCCn2c(=O)[nH]c3ccccc32)n1 | . | 3.3 |
| Cc1ccc(-n2c(-c3cnccc3C(F)(F)F)noc2=O)c(C)c1 | 1.7 | -2.6 |
| Cc1cc(C)n2nc(C(=O)Nc3cccnc3)cc2n1 | 1.2 | 12 |
| CCN(CC)C(=O)CSc1nc(N)c(C(=O)Nc2ccc(OC)cc2)s1 | -1.4 | 1.5 |
| Brc1ccc(CSc2nnc(-c3ccc4c(c3)OCO4)o2)cc1 | . | 1.8 |
| CCCCC1(C)OC(=O)C(=Cc2ccc(F)cc2)C(=O)O1 (configuration not stated) | . | -0.9 |
| NC(=O)C1CCCN1C(=O)CCC(=O)O (configuration not stated) | -0.64 | -1.2 |
| O=C(COc1ccc(F)cc1)NCCCn1ccnc1 | 0.38 | -0.3 |
| COc1c(Cl)cnn(-c2cccc(C)c2)c1=O | -0.46 | 2.1 |
| O=C1/C(=C/NCc2ccco2)S(=O)(=O)N(Cc2ccccc2)c2ccsc21 | . | -2.1 |
| COc1ccc(N2C(=O)/C(=C\c3ccco3)N=C2SCC(N)=O)cc1Cl | . | 1.1 |
| O=S1(=O)N=CNc2ccc(S(=O)(=O)NCc3ccccc3)cc21 | -0.55 | 2.1 |
| O=c1[nH]c(Nc2ccc3c(c2)OCO3)nnc1Cc1ccc(F)cc1 | 1.1 | -15 |
| Oc1ccc(Br)cc1C1CC(c2ccccc2)=NC(c2ccco2)N1 (configuration not stated) | -0.84 | 1.8 |
| COC(=O)NC(=O)c1ccc(Cl)cc1 | 0.64 | 3.6 |
| COc1cccc(C(=O)OCC(=O)c2ccccc2)c1OC | . | -0.9 |
| CN1C(=O)C(=Cc2ccc(-c3cccc(C(=O)O)c3)o2)C(=O)N(C)C1=S | -0.69 | 1.0 |
| CC1(C)CN(c2ccc(Br)cc2Br)C1=O | -0.49 | . |
| O=C(/C=C/c1cccs1)N1CCCN(C(=O)/C=C/c2cccs2)CC1 | 0.42 | -2.1 |
| CC(C#N)(c1ccccc1)c1ccccc1 | . | 0.2 |
| Cc1cc(/C=N/NC(=O)c2cccnc2)c(C)n1CC(C)C | . | 2.3 |
| COc1ccc(NC(=S)N2CCC(N(C)CCN3CCOCC3)CC2)cc1Cl | 0.0035 | -0.8 |
| O=C1CCCN1CCCn1c(-c2ccco2)csc1=Nc1ccc(F)cc1 | . | -0.8 |
| Cc1ccc(C(=O)Nc2ccc3c(c2)n(C)c(=O)n3C)cc1 | -1.4 | 0.2 |
| CP(=O)(O)C(c1ccccc1)C(F)(F)C(F)(F)C(F)(F)F (configuration not stated) | -1.1 | -0.3 |
| CCOc1ccc(N=C2SCCCN2C(=O)c2ccc(C#N)cc2)cc1 | . | 0.1 |

Going on with the list.
| canonical_smiles | KSHV LANA nucl | BasE inh |
| --- | --- | --- |
| CCN(CC)S(=O)(=O)c1ccc2c(c1)nc(CCC(=O)Nc1ccc(C(C)C)cc1)n2CC | . | 6.0 |
| C/C(N)=C(/C#N)C(=O)CSc1n[nH]c(N)n1 | . | 1.5 |
| COc1ccc(/C=C/C(=O)N2CC(=O)Nc3ccccc32)cc1S(=O)(=O)N1CCOCC1 | . | -7.4 |
| S=c1ccc(-c2ccc(Cl)cc2)nn1-c1ccccc1 | . | 3.3 |
| O=C(O)CCC(=O)NCc1ccco1 | -0.11 | 3.6 |
| CCN(CC)S(=O)(=O)c1cc(C(=O)N2CCN(Cc3ccc4c(c3)OCO4)CC2)ccc1Cl | . | 0.5 |
| CC(C)C(=O)NCc1nc(-c2ccccc2)no1 | 0.59 | -2.5 |
| O=C(CCNc1ccccc1C(=O)O)c1ccccc1 | -0.089 | 3.2 |
| CCN1C(N)=C(C#N)C(c2ccc3[nH]c4ccccc4c3c2)c2nc(C)oc21 (configuration not stated) | -0.3 | 2.7 |
| Cc1[nH]nc2c1C(c1ccccc1F)N(C)C2=O (configuration not stated) | -1.1 | 1.6 |
| COc1ccc(/C=C/C(=O)C(C(N)=O)=C2SCS2)cc1 | . | 0.5 |
| Cc1cc(I)ccc1NC(=O)CC(C)C | 1.3 | -4.0 |
| CC(C)OC(=O)c1cccc(C(=O)Oc2ccccc2)n1 | -0.1 | 2.8 |
| O=C(C1CC2CCCN2C12C(=O)Nc1ccccc12)N1CCN(c2ccccc2)CC1 (configuration not stated) | -0.54 | -2.3 |
| COc1ccc(C2Nc3ccccc3C(=O)N2c2ccccc2)cc1 (configuration not stated) | . | 1.8 |
| O=C(O)CC1C(=O)NCCN1CC(c1ccccc1)c1ccccc1 (configuration not stated) | -0.38 | -1.6 |
| O=c1[nH]c(=O)n(Cc2ccccc2)c2ncn(Cc3ccco3)c12 | . | -2.5 |
| O=C(O)c1nn2cccnc2c1Cl | 2.5 | -2.3 |
| Clc1ncc(CSCc2ccccc2)s1 | -0.87 | . |
| CNS(=O)(=O)c1ccc2nc(N)sc2c1 | -0.68 | 0.8 |
| COCCNCc1nc(NCCOC)c2c(C)c(C)sc2n1 | . | 1.8 |
| COC(=O)c1c(NC(=O)CN2CCC3(CC2)OCCO3)sc2c1CCCC2 | -0.14 | 0.8 |
| CC1=C(C(=O)Nc2nccs2)C2(CCCCCC2)OC1=O | -0.92 | 2.0 |
| NNC(=O)C(NC(=O)c1ccccc1)c1n[nH]c(=O)c2ccccc12 (configuration not stated) | 0.69 | 3.2 |
| CCN(CC(=O)Nc1ccc(C#N)cc1)C1CCCCC1 | . | 1.6 |
| CCCC1=NN(c2ccccc2)C(=O)/C1=C/c1ccc(Cl)cc1 | . | 2.7 |
| CC(=O)Nc1ccc(NCc2cccs2)cc1 | -1.6 | 1.1 |
| N#CC1(NC(=O)CSc2nnc3ccccn23)CCCCC1 | . | 4.3 |
| COc1ccc(Nc2cc(C(=O)O)c3ccccc3n2)cc1 | -0.59 | -0.9 |
| CN(CCCN1c2ccccc2CCc2ccccc21)CC(=O)c1ccc(Cl)cc1 | 0.57 | . |

More structures:
Compound,KSHV LANA nucl,BasE inh
Nc1c2c3c(sc2nc(=O)n1N)CCCC3,-0.43,7.2
O=C(Cn1c(=O)oc2ccccc21)NC(=O)NC1CCCC1,.,1.9
Cc1ccc(C(=O)NN2CCc3cc4ccc(C)cc4nc32)cc1,-0.83,0.8
CCN(C(=O)CSc1nnnn1-c1ccccc1)C1CCS(=O)(=O)C1 (configuration not stated),.,1.1
Cc1cc(C)cc(C(=O)OCC(=O)c2cc3c4c(c2)CC(=O)N4CCC3)c1,.,-1.2
COc1cccc(N2CCc3c(C)nc4ccc(Cl)cc4c32)c1,-0.22,-0.4
CCC1CCCCN1C(=O)CN1C(=O)c2ccccc2S1(=O)=O (configuration not stated),-0.31,-0.3
CCCCc1ccc(NCc2nc(-c3ccc(C)cc3)no2)cc1,.,-3.9
COc1ccc2ccc(O)c(CN3CCN(C(=O)C4CC4)CC3)c2c1,.,0.3
CCCC[C@@H](C)/C=C(C)/C=C(\C)C(=O)NC1=C[C@@](O)(/C=C/C=C/C=C/C(=O)NC2=C(O)CCC2=O)[C@@H]2O[C@@H]2C1=O,-0.13,-1.5
C=CCOc1cccc(C(=O)NCCOC)c1,0.19,0.5
OCCC1CCCCN1CC(O)c1ccccc1 (configuration not stated),.,-1.6
O=C(Cc1c(F)c(F)c(F)c(F)c1F)OC12CC3CC(C1)C(=O)C(C3)C2,.,-0.5
O=C(Nc1cccc2ccccc12)OCCn1ncc2ccccc2c1=O,.,1.4
CC1CCN(S(=O)(=O)c2ccc3[nH]c4c(c3c2)CCCC4)CC1,-2.3,0.6
CCOC(=O)C1CCN(Cn2c(=S)n(-c3ccc(OC)cc3)c3ccccc32)CC1,.,-0.8
O=C(Nc1ccccc1)C(C(F)(F)F)C(F)(F)F,0.24,-0.9
Nc1nc(CSc2nnc(C3CC3)n2C2CC2)nc(Nc2ccccc2)n1,.,0.4
O=C(c1ncoc1-c1cccs1)N1CCN(Cc2cccc3ccccc23)CC1,-0.005,-0.1
CCCCC1CCC(C(=O)Oc2ccc(OCC)cc2)CC1 (configuration not stated),.,0.3

(continued)
Compound,KSHV LANA nucl,BasE inh
NS(=O)(=O)c1ccc(-n2ncc(Cl)c(Cl)c2=O)cc1,.,-0.2
COC(=O)C1=CN(C)C=C(C(=O)OC)C1c1ccc2c(c1)OCO2,0.0015,3.3
CC(=O)N1CCN(c2ccc(S(=O)(=O)N3CCCCC3)cn2)CC1,.,-1.2
C1CN(c2nsnc2OCCOc2nsnc2N2CCOCC2)CCO1,.,-0.2
Cc1cc(C)c(C(=O)COC(=O)c2ccc(N(C)C)cc2)c(C)c1,.,-0.6
COc1cccc(-n2c(SCC(=O)N3CCCCC3C)nc3ccccc3c2=O)c1 (configuration not stated),.,1.3
CCOC(=O)c1c(C)[nH]c(C(=O)COC(=O)c2ccccc2)c1C,.,-0.9
O=C(C1CCN(c2ccc(-c3cccs3)nn2)CC1)N1CCN(Cc2ccc3c(c2)OCO3)CC1,-0.76,-1.4
N#Cc1ccc(OCC(=O)OCC(=O)N2CCCCC2)cc1,.,0.2
O=C(CN1CCc2ccccc21)NCc1ccc2c(c1)OCO2,.,-0.3
O=C(Nc1ccccc1)N1CCN(C2c3ccccc3-c3ccccc32)CC1,-0.95,.
COc1ccc(OC)c(S(=O)(=O)NC2CCS(=O)(=O)C2)c1 (configuration not stated),.,1.4
CC(Oc1ccc(F)cc1)C(=O)O (configuration not stated),-1.1,-0.1
CC1Cc2ccccc2N1Cc1nnc(-c2ccccc2)o1 (configuration not stated),-0.091,1.9
Cc1ccccc1NC(=O)Cc1nc(CSc2nnc(-c3ccccc3)n2C)cs1,.,-0.4
CCC1C(O)=C(c2ccccn2)C(=N)N1c1ccccc1 (configuration not stated),.,1.9
CC(C)CCNC(=O)c1ccc(S(=O)(=O)N2CCCC2)cc1,.,-1.4
CN(CC(=O)Nc1ccc2c(c1)OCCCO2)C1=NS(=O)(=O)c2ccccc21,.,1.6
CCOC(=O)COc1nc(-c2ccccc2)cc(-c2ccccc2)c1C#N,.,-0.8
Cc1c(C(=O)NC2=NCCS2)oc2ccccc12,0.9,0.8

(cont.)
Compound,KSHV LANA nucl,BasE inh
COc1ccccc1OC(C)C(=O)O (configuration not stated),-0.63,4.8
Cc1ccc(S(=O)(=O)N2CCC(C(=O)NC3CC3)CC2)cc1,-1,2.3
C=C(C)CSc1nnc(C)c(=O)[nH]1,-0.82,1.7
O=C(NC(=S)Nc1ccccc1CO)C1CCCCC1,.,2.7
CN(C)S(=O)(=O)c1ccc(C(=O)N2CCC(c3nc4ccccc4o3)CC2)cc1,.,-0.3
CCN(CC)S(=O)(=O)c1ccc2c3c(cccc13)C(=O)N2C(=O)c1cccnc1,0.44,0.0
Cc1ccc(C)n1NC(=O)c1ccco1,0.53,.
CC(=NC(=S)c1ccc(Cl)cc1)N(C)C,.,-4.5
OCCNc1nc2ccc(Cl)cc2[nH]1,-1.1,0.7
COc1ccccc1N1CCN(CC(O)COc2ccc3c(C)cc(=O)oc3c2)CC1 (configuration not stated),.,1.0
Nc1cc(C(=O)N2CCCC2)cc(C(=O)N2CCCC2)c1,0.62,6.3
CN1/C(=C\C=N\Nc2ccccn2)C(C)(C)c2ccccc21,.,-1.0
CC1=C(C(=O)Nc2ccc(Br)cc2F)C2C(=O)N(C)C=NC2O1 (configuration not stated),0.14,-0.6
CCOC(=O)C1CCN(C(=O)CCS(=O)(=O)Cc2ccccc2)CC1,-0.4,-0.1
NS(=O)(=O)c1ccc(CCNC(=O)CCCn2c(SCC(=O)Nc3nccs3)nc3ccsc3c2=O)cc1,-0.52,-1.4
CN1C(=O)/C(=C2/SC(=S)N(c3cccc(O)c3)C2=O)c2ccccc21,-0.021,2.5
O=C(CC1C(=O)OCC2CCCCN21)Nc1ccc(I)cc1 (configuration not stated),.,0.4
CCC1CCCCN1C(=O)c1cc(-c2cccc(OC)c2)no1 (configuration not stated),-0.61,-2.6
Oc1[nH]c2ccccc2c1C=NCCN1CCOCC1,1.6,1.3
COc1cc(C(=O)Nc2ccccc2C(=O)N2CCN(C)CC2)cc(OC)c1OC,0.051,-0.7

(cont.)
Compound,KSHV LANA nucl,BasE inh
Cc1cc(C)nc(SCCC(=O)N(C)C)n1,0.52,-1.3
Nc1nsnc1C(=O)NCCO,-1.1,1.2
CC1CCN(C2=NC(Cc3ccccc3)C(=O)N2C2CCCCC2)CC1 (configuration not stated),0.42,-0.6
CCOC(=O)/C=C(\C)Sc1cc(=O)oc2ccccc12,.,-1.0
CCCCCCCCCC(=O)N[C@H](CN1CCOCC1)[C@H](O)c1ccccc1,0.73,-5.2
CN1CCN(C(=O)C(NC(=O)c2ccc(Cl)cc2)C23CC4CC(CC(C4)C2)C3)CC1 (configuration not stated),2,-0.4
CC(=O)N1CCC(N(CCCN2CCC(C)CC2)C(=O)Nc2ccccc2C(F)(F)F)CC1,0.22,1.9
CCN(CC)CC(O)Cn1c(-c2ccccc2Cl)nc2ccccc21 (configuration not stated),0.21,-3.1

Four entries out of the list, ordered by molecular weight, smallest number first.
Compound,KSHV LANA nucl,BasE inh
COc1cccc(N2CCc3c(C)nc4ccc(Cl)cc4c32)c1,-0.22,-0.4
CCCn1c2ccccc2c2cnn(CC(=O)N(C)Cc3ccccc3)c(=O)c21,1.1,-3.7
CN(CC(=O)Nc1ccc2c(c1)OCCCO2)C1=NS(=O)(=O)c2ccccc21,.,1.6
CCOC(=O)C1CCN(Cn2c(=S)n(-c3ccc(OC)cc3)c3ccccc32)CC1,.,-0.8

From PubChem BioAssay
